VDR inh: blocks the human vitamin D receptor. P11473. VDR-SRC2-3 peptide fluorescence polarization, 2 h. Potency, µM, inactives show max response, negative = inhibition, most hits filed as inhibitors. actives 0.93% (n = 400,000). AID 504847; active means well fitted inhibition curve with a large enough effect; inconclusive means small, poorly fitted or top-dose-only effect, or another doubt; inactive means no such curve, though single readings can be large or run the other way; further: series mostly up to about 120 µM
Target sequence (P11473 whole entry, looked up): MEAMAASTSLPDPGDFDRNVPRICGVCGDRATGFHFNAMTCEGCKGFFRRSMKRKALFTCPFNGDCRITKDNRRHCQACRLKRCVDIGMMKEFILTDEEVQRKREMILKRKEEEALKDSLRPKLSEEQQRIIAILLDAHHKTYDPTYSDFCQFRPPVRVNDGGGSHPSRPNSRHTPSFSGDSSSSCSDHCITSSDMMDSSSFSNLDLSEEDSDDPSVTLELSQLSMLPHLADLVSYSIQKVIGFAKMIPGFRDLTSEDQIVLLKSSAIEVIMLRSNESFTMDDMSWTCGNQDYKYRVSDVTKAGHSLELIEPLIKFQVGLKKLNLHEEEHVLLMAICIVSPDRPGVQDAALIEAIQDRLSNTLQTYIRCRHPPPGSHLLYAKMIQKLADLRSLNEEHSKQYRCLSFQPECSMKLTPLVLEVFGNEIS
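After 23 nl compound addition and a short centrifugation, plates sat for 2 hours at ambient temperature; polarization of fluorescence then indicated loss of VDR binding to peptide SRC2-3.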
Starred values were filed as active, the others as inactive; & = joins results of further samples; [ ] = dose if it differs, or a comment. On the % scale 0 is the no-effect control and ±100 the full control effect; potency means the concentration at half of the fitted maximal effect. An excerpt; count on the stated rates, not on these rows.

CCCN1CCN(CCCNC(=O)c2cnn(-c3ccc(F)cc3)c2-n2cccc2)CC1 was read as VDR inh 2%.
For Cc1cccc(C(=O)NNC(=O)c2ccccc2-n2cccc2)c1 the results were VDR inh -20%.
`Cc1ccc(S(=O)(=O)N2[C@@H](c3ccc(Cl)cc3)C(C(=O)O)=CC[C@H]2c2ccc(C(C)C)cc2)cc1` gave VDR inh -4%.
Screening CCNC(=O)C(=O)Nc1ccc(OC)c(Cl)c1 returned VDR inh 8%.
O=C(N/N=C1/CC2CCC1C2)c1cc2ccccc2cc1O (centres undefined) was read as VDR inh 10%.
Screening COc1ccc(NS(=O)(=O)c2ccc(NC(=O)C3CC3)cc2)cc1 returned VDR inh -9%.
For O=C(c1cc2ccccc2oc1=O)N1CCN(c2ccc(F)cc2)CC1 the results were VDR inh -12%.
Screening Cc1ccc(Oc2ncc(-c3ccc(Cl)cc3)cn2)cc1 returned VDR inh 11%.
For Cc1nc2scc(C)n2c(=O)c1S(=O)(=O)NCc1ccccc1 the results were VDR inh 8%.
`COC(=O)c1cc(-c2ccccc2)sc1NC(=O)CN1C(=O)c2ccccc2C1=O` gave VDR inh -27%.
Screening Cn1c(SCC(=O)Nc2ccc(F)cc2)nc2c([nH]c3ccccc32)c1=O returned VDR inh 0%&7%.
COc1ccc(NC(=O)Cn2ccn(-c3ccccc3)c(=O)c2=O)cc1 was read as VDR inh 6%.
`CN(CC(=O)Nc1c(Cl)cccc1Cl)C(=O)CCC(=O)c1ccccc1` gave VDR inh 4%.
For CCN(c1ccccc1)S(=O)(=O)c1ccc(NC(=O)c2cc(=O)c3cc(C)cc(C)c3o2)cc1 the results were VDR inh 4%.
For CN(C(=O)COC(=O)Cc1c[nH]c2ccccc12)c1c(N)n(Cc2ccccc2)c(=O)[nH]c1=O the results were VDR inh 1%.
`O=C(c1ccc(S(=O)(=O)N2CCCC2)cc1)N1CCN(Cc2ccc3c(c2)OCO3)CC1` gave VDR inh 3%.
O=C(O)c1cc([N+](=O)[O-])cc2ccccc12 was read as VDR inh -5%.
For CN(C)S(=O)(=O)c1ccc(Cl)c(NC(=O)CNC2(C)CCS(=O)(=O)C2)c1 (centres undefined) the results were VDR inh -18%.
For COCCNC(=O)C1CC(c2cccc([N+](=O)[O-])c2)=NO1 (centres undefined) the results were VDR inh -4%.
COc1ccc(-c2cn3nc(N4CCCC(C(=O)NCc5ccccc5C)C4)sc3n2)cc1 (centres undefined) was read as VDR inh 7%.
O=C(C[C@@H]1C/C=C\C[C@H](Cc2ccc(F)cc2)C(=O)OC[C@H]2CCCN2C1=O)NCCO was read as VDR inh 11%.
COCCNC(=O)CSCc1cc(C)cc(C)c1 was read as VDR inh 8%.
For O=Cc1ccccc1OCCCOc1cccc2cccnc12 the results were VDR inh -12%.
`O=C(CCCn1c(=S)[nH]c2cc3c(cc2c1=O)OCO3)N1CCN(c2ccc(Cl)cc2)CC1` gave VDR inh 9%.
COc1ccccc1NC(=S)N1CCn2cccc2C1c1cccnc1 (centres undefined) was read as VDR inh -10%.
CC(=O)c1ccccc1NC(=O)COC(=O)CN1C(=O)C2CCCCC2C1=O (centres undefined) was read as VDR inh 5%.
Screening Cc1cc(C)n(C(C)CC(=O)Nc2ccc(Cl)cc2C)n1 (centres undefined) returned VDR inh 8%.
For CC1Oc2ccccc2N(CC(=O)Nc2ccc(F)cc2)C1=O (centres undefined) the results were VDR inh 2%.
CC(=O)c1nn(-c2cccc(Br)c2)cc1C(=O)c1ccc2ccccc2c1 was read as VDR inh 7%.
C=CCn1c(=O)c2ccccc2n2c(SCC(=O)Nc3cc(C)on3)nnc12 was read as VDR inh -12%.
Screening O=C(Nc1ccc(F)cc1F)c1ccc(-n2cnc3cccnc32)cc1 returned VDR inh 13%.
`O=C(c1ccccc1)c1cc([N+](=O)[O-])ccc1N1CCOCC1` gave VDR inh inconclusive.
COc1ccc(OC)c(-n2c(SCC(C)=O)nnc2-c2cccc(S(=O)(=O)N(C)C)c2)c1 was read as VDR inh -4%.
For CCNc1nnc(CSc2nc3ccccc3s2)s1 the results were VDR inh 9%.
For N#Cc1c(C(F)(F)F)cc(-c2ccccc2)[nH]c1=O the results were VDR inh 2%.
Screening Cc1cc(C)c(NC(=O)Nc2csc3c2CCCC3)c(C)c1 returned VDR inh 6%.
Screening O=C(Nc1ccccc1Br)c1ccccc1-c1ccccc1 returned VDR inh -9%.
For CSc1ccc(/C=N/Nc2nc(C)cc(C)n2)cc1 the results were VDR inh 5%.
`COc1cccc(-n2nnnc2SCC(=O)NCc2ccc3c(c2)OCO3)c1` gave VDR inh -13%.
Screening COc1ccc(CNC(=O)c2ccccc2NS(C)(=O)=O)cc1 returned VDR inh 0%.
`O=C(Cc1ccccc1)Nc1ccc(N2CCOCC2)cc1N1CCOCC1` gave VDR inh -5%.
Screening COc1ccc(/C=N/Nc2ncc(-c3ccccc3)cn2)c(OC)c1 returned VDR inh 5%.
Cc1cccc(NS(=O)(=O)c2nnc(NC(=O)C3CCCCC3)s2)c1 was read as VDR inh -8%&2%.
Cc1ccccc1-c1nnc2c3ccccc3c(C)nn12 was read as VDR inh 15%.
`Cn1cnc([N+](=O)[O-])c1Sc1nnc(-c2cccnc2)n1C` gave VDR inh -16%.
O=[N+]([O-])c1ccc(/C=N/Nc2nc(N3CCCC3)nc(N3CCCC3)n2)o1 was read as VDR inh 17%.
Screening Cc1cc(C)n2c3c(c(C#N)c2n1)CCCC3 returned VDR inh 11%.
O=C(C1CC(=O)N(c2ccc(Cl)cc2)C1)N1CCOCC1 (centres undefined) was read as VDR inh 2%.
Cc1ccc(CNC(=O)c2c(Nc3ccccc3C)sc(C(=O)c3ccc(F)cc3)c2N)cc1 was read as VDR inh 3%.
COc1ccc(-n2c(=O)c3ccccc3n(CC(=O)NCCc3ccccc3)c2=O)c(OC)c1 was read as VDR inh -14%.
`COc1ccccc1CNC(=O)CCC1N=C2c3ccccc3N=C(SCC(=O)Nc3ccc(N(C)C)cc3)N2C1=O` (centres undefined) gave VDR inh 7%.
C=CCNS(=O)(=O)c1nc(C)c(Cl)c(C)c1C#N was read as VDR inh 7%.
For O=C(N/N=C/c1ccc2c(c1)OCO2)c1cc(-c2ccco2)nc2ccccc12 the results were VDR inh -9%.
`COC(=O)c1ccc2c(c1)sc(=NC(=O)c1ccc(S(=O)(=O)N3CCCCC3)cc1)n2C` gave VDR inh 16%.
Cc1cccc(NC(=O)c2c(NC(=O)C(F)(F)F)sc3c2CCCCC3)c1 was read as VDR inh 10%.
For Cc1ccc(C)c2[nH]c(=O)c(C(c3nnnn3C3CCCC3)N3CCOCC3)cc12 (centres undefined) the results were VDR inh 4%.
`Cc1noc(C)c1COc1ccccc1C(=O)N1CCN(S(=O)(=O)c2ccccc2Br)CC1` gave VDR inh -19%.
COc1cc(OC)cc(-c2c(C#Cc3ccsc3)c3cc(-c4ccc5c(c4)OCCO5)ccc3n2C)c1 was read as VDR inh -15%.
`COc1ccc(CNc2ncccn2)cc1OC` gave VDR inh -3%.
CC(C)CCNC(=O)CCc1nnc2n(CCCOC(C)C)c(=O)c3ccccc3n12 was read as VDR inh -5%.
For CCOc1ccc(CCNC(=O)c2ccc3c(c2)c(C)c(C)n3Cc2ccccc2)cc1OCC the results were VDR inh 6%.
CCCCCC(=O)NC(=S)Nc1ccc2oc(=O)ccc2c1 was read as VDR inh -16%.
`CCn1c(SCC(=O)Nc2nc(C)c(C)s2)nnc1-c1cccnc1` gave VDR inh -11%.
For [O-][n+]1c2ccccc2c2n1CCCN=C2c1ccc(Cl)cc1 the results were VDR inh -9%.
Screening O=C(Nc1ccc2c(c1)CCC2)Nc1ccccc1F returned VDR inh 13%.
CN1CCN(CCCNC(=O)c2cc3c(=O)n(C)c4ccccc4c3s2)CC1 was read as VDR inh 13%.
For CC1CCCCC1NS(=O)(=O)c1ccc(-n2cnnn2)cc1 (centres undefined) the results were VDR inh -22%.
For Cn1c(Cc2ccccc2)nnc1SCC(=O)N1CCN(c2ccccc2)CC1 the results were VDR inh -7%.
O=Nc1c(O)n(Cc2c(Cl)cccc2Cl)c2ccccc12 was read as VDR inh inconclusive.
Screening C=CCn1cnc2c(oc3ccccc32)c1=O returned VDR inh -8%.
COc1ccc(-c2noc(N(c3ccc(F)c(Cl)c3)c3nc(-c4ccc(OC)c(OC)c4)no3)n2)cc1OC was read as VDR inh -6%.
For COc1ccc(C(CNC(=O)COc2ccccc2C#N)N2CCOCC2)cc1 (centres undefined) the results were VDR inh 8%.
Screening Cc1nc2cnc(N3CCOCC3)nc2n(CCC#N)c1=O returned VDR inh 4%.
Cc1cccn2c(=O)c3cc(C(=O)NCCN4CCOCC4)n(C)c3nc12 was read as VDR inh 3%.
COc1cc2[nH]c3c(=O)n4c(nc3c2cc1OC)SCCC4 was read as VDR inh 8%.
For C=CCN(c1ccccc1)S(=O)(=O)c1cccc2cccnc12 the results were VDR inh -7%.
`CC(C)c1cc(N2CCC(=O)NC2=O)cc(C(=O)O)c1O` gave VDR inh 4%.
Cc1ccc(NC(=O)NC(=O)COc2c(F)c(F)cc(F)c2F)c(C)c1 was read as VDR inh 6%.
`Cc1noc(C)c1C(=O)OCC(=O)N1CCN(S(=O)(=O)c2ccc3ccccc3c2)CC1` gave VDR inh -7%.
Screening CCC(=O)N1CCc2cc(Br)cc(S(=O)(=O)CCC(=O)Nc3cccc(Cl)c3)c21 returned VDR inh -22%.

Fetched by structure from above, two records:
Screening COc1ccc(CNC(=O)c2ccccc2NS(C)(=O)=O)cc1 returned VDR inh 0%.
`COC(=O)c1cc(-c2ccccc2)sc1NC(=O)CN1C(=O)c2ccccc2C1=O` gave VDR inh -27%.

Entries above that contain two or more sulfur atoms, in the order listed:
For Cc1nc2scc(C)n2c(=O)c1S(=O)(=O)NCc1ccccc1 the results were VDR inh 8%.
For CN(C)S(=O)(=O)c1ccc(Cl)c(NC(=O)CNC2(C)CCS(=O)(=O)C2)c1 (centres undefined) the results were VDR inh -18%.
COc1ccc(OC)c(-n2c(SCC(C)=O)nnc2-c2cccc(S(=O)(=O)N(C)C)c2)c1 was read as VDR inh -4%.
For CCNc1nnc(CSc2nc3ccccc3s2)s1 the results were VDR inh 9%.
Cc1cccc(NS(=O)(=O)c2nnc(NC(=O)C3CCCCC3)s2)c1 was read as VDR inh -8%&2%.
`COC(=O)c1ccc2c(c1)sc(=NC(=O)c1ccc(S(=O)(=O)N3CCCCC3)cc1)n2C` gave VDR inh 16%.
`CCn1c(SCC(=O)Nc2nc(C)c(C)s2)nnc1-c1cccnc1` gave VDR inh -11%.

Continuation:
For COc1ccc(CCC(=O)OCC(=O)N2CCN(S(=O)(=O)c3ccc(C)cc3C)CC2)cc1 the results were VDR inh -11%.
CCC1CCC2(CC1)NC(=O)N(CC(=O)NCc1ccc(Cl)cc1)C2=O (centres undefined) was read as VDR inh 17%.
Screening Cc1ccc2cccc(S(=O)(=O)N3CCCc4ccccc43)c2n1 returned VDR inh -18%.
Screening C=C(C)/C=N/NC(=S)Nc1ccc(S(=O)(=O)N2CCOCC2)cc1 returned VDR inh 5%.
`CC(C)CCNC(=O)C(c1ccc(O)cc1)N(C(=O)C1COc2ccccc2O1)c1cccc(O)c1` (centres undefined) gave VDR inh 7%.
Cn1nnc2cc(C(=O)N3CCN(c4ccccn4)CC3)ccc21 was read as VDR inh -3%.
For O=C(NCc1ccccc1)C1CC(=O)N(C2CCCCC2)C1 (centres undefined) the results were VDR inh 2%.
Screening CCCNC(=O)Cn1cccc1C(=O)c1ccccc1 returned VDR inh 33%[activator].
O=C(Oc1ccc2c(c1)OCC2=O)c1ccc(Cl)cc1 was read as VDR inh 12%.
`O=C(CN1CCCC1)Nc1c2c(cc3c1CCC3)CCC2` gave VDR inh -6%.
`Clc1ccc2nc(CN3CCCc4ccccc43)cn2c1` gave VDR inh -9%.
O=C(c1ccc(Cl)c(Cl)c1)N1CCC(=O)N(C(COCc2cccc(Cl)c2)Cc2ccccc2)CC1 (centres undefined) was read as VDR inh 4%.
O=C1CCN(Cc2ccc(O)cc2)CCN1CCO was read as VDR inh -5%.
Screening Cn1nc(C(C)(C)C)c([N+](=O)[O-])c1C(=O)NC1CCCCC1 returned VDR inh -10%.
For Cc1ccc(NC(=O)c2cc(C)nc3c2c(C)nn3-c2cccc(Cl)c2C)c(C)c1 the results were VDR inh -2%.
`Nc1nonc1-n1nnc(C(=O)N/N=C/c2ccc(Br)cc2)c1CN1CCOCC1` gave VDR inh -1%.
Screening Cn1c(N)c(C(=O)COC(=O)c2ccccc2C(=O)c2ccccc2)c(=O)n(C)c1=O returned VDR inh -6%.
CNCC[C@H](Oc1ccc(C(F)(F)F)cc1)c1ccccc1 was read as VDR inh 1%&-7%&2%.
COc1ccc(C(=O)/C=C/c2ccc(O)cc2)cc1 was read as VDR inh -11%.
`Cc1cc(OCc2nnc(SC(C)C(=O)O)n2Cc2ccccc2)ccc1Cl` (centres undefined) gave VDR inh 1%.
